# From PubChem BioAssay
# Mito fusion act – inhibitors of mitochondrial division or activators of mitochondrial fusion. S. cerevisiae fusion-defective mutant growth rescue, CellTiterGlo 48 h. Potency, µM (doses to about 46.1 µM), for the others: at the top dose growth rescue (activation), actives largely listed as activators. hit rate 0.23% among 320,000;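 further: potency means the concentration at half of the fitted maximal effect; % of control where 0% means no effect; nearly all actives have a fitted effect of over 45% in size; temperature-sensitive fusion mutants such as fzo1-1 at 37 °C on non-fermentable ethanol glycerol medium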
#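 Yeast fusion mutant, YPEG (non-fermentable carbon), compound, 48 h at 37C non-permissive; CellTiterGlo added, 10 min RT, luminescence read. Rescued growth = division inhibition.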
# ELG1 repair inh – ELG1-dependent DNA repair inhibition; HEK293T ELG1-luciferase reporter, luminescence, 16 h; DNA damage induced by 5-fluorouridine; Potency, µM (highest dose often 46.1 µM), for inactives: at the highest dose activity change, negative = inhibition, hits mostly inhibitors; hit rate 2.3% among 330,000; AID 504467; further: potency means the concentration at half of the fitted maximal effect; on the % scale 0 is the no-effect control and ±100 the full control effect; nearly all actives have a fitted effect of over 55% in size
#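 Reporter activity after DNA damage by 5-fluorouridine is monitored. Compound-treated cells incubate 16 hr at 37 °C, then ONE-Glo is added for 30 min before luminescence reading.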
# Rab9 prom act – activates the Rab9 promoter. Potency, µM (doses to about 9.22 µM), without a hit: top-dose activation, negative = inhibition, hits mostly activators. Huh7 Rab9 promoter-luciferase reporter, luminescence, 24 h. hit rate 2.8% among 320,000; further: potency means the concentration at half of the fitted maximal effect; % of control where 0% means no effect; nearly all actives have a fitted effect of over 60% in size
#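 Cells were plated at 1500 per well in reduced-serum medium with 10% FBS and left 2 h. Compound in DMSO was then added for 24 h at 37 °C. Reporter signal was read by luminescence after 10 min with luciferase detection reagent.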
# KCNH2 3.1 inh – blocks the human KCNH2 3.1 channel isoform; activity change, % (tested at about 1.8 µM); U2OS KCNH2 3.1, thallium flux FluxOr; stronger effect = lower value; AID 720553; hit rate 0.95% among 340,000;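 active means maximum activity change below -70%; inconclusive means maximum activity change from -70% to -50%; inactive means maximum activity change above -50%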;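 further: thallium influx rate constant from kinetic fluorescence after stimulation buffer; on the % scale 0 is the no-effect control and ±100 the full control effect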
#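 Steps: virus added to U2OS suspension (4 h, RT, dark); medium with 10% FBS added, cells plated, 37 C overnight; FluxOr/Red40 loading buffer 45 min RT; stimulation buffer, 2 min kinetic read; rate constant normalized.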
# PKM2 act – activators of human pyruvate kinase M2. P14618. AID 1631. Potency, µM (highest dose often 57.5 µM), for the others: at the top dose activation, most hits filed as activators. hit rate 0.34% among 260,000. purified PKM2, Kinase-Glo ATP luminescence, activation; response scale: 0% is enzyme alone, no compound; further: potency means the concentration at half of the fitted maximal effect; on the % scale 0 is the no-effect control and ±100 the full control effect; nearly all actives have a fitted effect of over 55% in size
# Target sequence (P14618 whole entry, looked up): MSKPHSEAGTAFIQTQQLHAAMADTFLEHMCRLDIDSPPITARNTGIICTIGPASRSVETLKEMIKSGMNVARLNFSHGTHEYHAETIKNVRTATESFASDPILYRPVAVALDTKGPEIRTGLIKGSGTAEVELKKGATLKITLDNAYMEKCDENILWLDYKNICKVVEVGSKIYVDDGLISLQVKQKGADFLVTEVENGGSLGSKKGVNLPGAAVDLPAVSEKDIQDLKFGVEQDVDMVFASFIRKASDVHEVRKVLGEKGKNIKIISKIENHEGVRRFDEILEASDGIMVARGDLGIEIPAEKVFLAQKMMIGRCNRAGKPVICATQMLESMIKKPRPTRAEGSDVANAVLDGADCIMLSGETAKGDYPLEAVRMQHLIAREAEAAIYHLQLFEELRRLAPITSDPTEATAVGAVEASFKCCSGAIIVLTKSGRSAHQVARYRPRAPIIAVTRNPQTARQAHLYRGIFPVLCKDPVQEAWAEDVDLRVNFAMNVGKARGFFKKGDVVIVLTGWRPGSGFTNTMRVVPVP
#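 hPK-M2, >95% pure; 0.1 mM ADP / 0.5 mM PEP final; imidazole pH7.2 buffer w/ 7 mM MgCl2, 50 mM KCl; 1 h RT; Kinase-Glo lum. Intermediate enzyme activity for dual inhibitor/activator qHTS.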
# MBNL1 CUG block – inhibitors of human MBNL1 binding to CUG repeat RNA. Q9NR56. TR-FRET MBNL1-His/biotin-(CUG)12 binding, 665/545 ratio. hit rate 0.036% among 280,000. Potency, µM (highest dose often 57.5 µM), for inactives: at the top dose activity change, negative = inhibition, actives largely listed as inhibitors; active means well fitted inhibition curve with a large enough effect in the signal ratio, with a control signal flat, not every such curve was filed as active; inconclusive means small, poorly fitted or top-dose-only effect, or effect the other way, or a change in a side signal; inactive means no such curve, though single readings can be large or run the other way; the % refers to the signal ratio; further: potency means the concentration at half of the fitted maximal effect; on the % scale 0 is the no-effect control and ±100 the full control effect
#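 Compounds (final 92 nM to 58 uM) are added to His-tagged MBNL1 and biotin-(CUG)12, then terbium anti-His antibody and streptavidin-XL665 (5 nM final). After 60 min at room temperature, the 665/545 nm ratio is read.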
# NPC1 prom act – activates the NPC1 promoter | hit rate 2.4% among 320,000 | Potency, µM (doses to about 9.22 µM), for the others: top-dose activation, most hits filed as activators | Huh7 NPC1 promoter luciferase reporter, 24 h;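 further: potency means the concentration at half of the fitted maximal effect; % of control where 0% means no effect; nearly all actives have a fitted effect of over 60% in size; reporter is driven by a mutant NPC1 promoter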
#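 In 1536-well qHTS, Huh7 cells harboring an NPC1 promoter–luciferase construct received compound for 24 h; activation was quantified by luminescence following luciferase reagent addition.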
# RORg inh – ROR gamma (mouse) transcription inhibition; hit rate 5.4% among 310,000; Potency, µM (titrated, usually from 53.6 µM), for inactives: at the highest dose activity change, negative = inhibition, hits mostly inhibitors; Drosophila S2 Gal4-RORgamma UAS-luciferase reporter, 20 h; P51450; AID 2551; further: potency means the concentration at half of the fitted maximal effect; on the % scale 0 is the no-effect control and ±100 the full control effect; nearly all actives have a fitted effect of over 60% in size
#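 ROR gamma transcriptional activity was tracked as Gal4-UAS luciferase output in stably transfected Drosophila Schneider cells, with compound added 1 hr before 700 uM copper sulfate induction and a 20 hr ambient-temperature incubation.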
# VP16 counter – counter-screen for ROR gamma inhibitors: Gal4-VP16 reporter. Drosophila S2 Gal4-VP16 UAS-luciferase, luminescence, 20 h. Potency, µM (doses to about 53.6 µM), without a hit: at the highest dose activity, negative = inhibition, usual class: inhibitors. hit rate 3.5% among 310,000. AID 2546;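 further: Gal4-VP16 expression switched on by copper sulfate through the metallothionein promoter; potency means the concentration at half of the fitted maximal effect; on the % scale 0 is the no-effect control and ±100 the full control effect; nearly all actives have a fitted effect of over 50% in size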
# * = called active by the depositor; ? = inconclusive; / = no result given; [ ] = remark or other dose. Unless noted, the call rests on the fitted dose curve; in most records, active means well fitted curve in the direction sought with a large enough effect; inconclusive means small, poorly fitted or top-dose-only effect, or another doubt; inactive means no such curve, though single readings can be large; an effect the other way counts as inactive or inconclusive.
SMILES,Mito fusion act,ELG1 repair inh,Rab9 prom act,KCNH2 3.1 inh,PKM2 act,MBNL1 CUG block,NPC1 prom act,RORg inh,VP16 counter
CCc1ccccc1-n1c(SCC(=O)NC)nnc1-c1ccco1,1%,0%,0%,-1,3%,2%,-1%,3%,17%
Cc1[nH]c(=O)[nH]c(=O)c1S(=O)(=O)Nc1cccc(C(F)(F)F)c1,0%,-4%,-2%,8,/,-1%,-3%,12%,-6%
CC(C)(C)NC(=O)CSc1nc(O)cc(=O)[nH]1,-1%,10%,-1%,1,0%,?,-3%,6%,?
COc1ccc(CC(=O)c2cc(OC)c(OC)cc2CC(=O)O)cc1OC,3%,1%,-4%,4,1%,-3%,-3%,12%,-7%
CC1=C(C(=O)Nc2ccccc2)C(c2cccs2)n2nnnc2N1 (configuration not stated),-6%,3%,-3%,12,-2%,5%,1%,-4%,21%
CCOC(=O)c1cc2ccc3ccccc3c2oc1=O,-4%,0%,0%,6,-3%,?,-10%,0%,-4%
C=CCn1c(COc2ccc(Cl)cc2)nnc1SCC(=O)Nc1ccc(S(N)(=O)=O)cc1,-4%,0%,1%,-24,1%,-36%[11.5 µM],-1%,40%,-19%
CC(C)[C@H](Nc1ccc(S(=O)(=O)N2CCOCC2)cc1[N+](=O)[O-])C(=O)OCC(=O)N(C(C)C)C(C)C,1%,?,-9%,-6,2%,/,-1%,?,7%
CCOC(=O)C1CCN(C(=O)c2ccc3c(c2)NC(=O)/C(=C\c2ccc(C)cc2)S3)CC1,8%,7%,1%,-35,/,3%,-5%,30%,5%
CCC(NS(=O)(=O)c1c(C)[nH]c(=O)[nH]c1=O)C12CC3CC(CC(C3)C1)C2 (configuration not stated),0%,-4%,-2%,4,-3%,3%,1%,-20%,-3%
CN1c2ccccc2Oc2c(c(=O)n(C)c(=O)n2C)C1c1cccc([N+](=O)[O-])c1 (configuration not stated),3%,-2%,-4%,-12,6%,14%,1%,-10%,0%
Cc1ccc(S(=O)(=O)CC(=O)c2cc3cccc(C)c3oc2=O)cc1,-11%,9%,-2%,2,/,14%,-4%,-23%,-13%

# Only part of the results is shown. The share of hits here may be higher or lower than overall.
